Screening results (PubChem BioAssay)
KCNQ2 enhance = enhances the rat KCNQ2 potassium channel | O88943 | CHO-K1 KCNQ2, FluxOR thallium flux fluorescence; stronger effect = higher value | B-score at 10 µM | 310,000 tested, 0.54% active;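 active = fluorescence ratio B-score at least 3 SD of library B-scores, with initial fluorescence B-score within 3 SD, cut at about 5.3 in these data; same plate scores as AID 2156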;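 note: B-score of peak minus minimum over baseline fluorescence ratio after K+ and Tl+ stimulus; positive B-score means potentiation of KCNQ2 with more thallium influx and brighter signal; only the inactives scoring about 0 or higher are listed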
Target sequence (O88943 whole entry, looked up): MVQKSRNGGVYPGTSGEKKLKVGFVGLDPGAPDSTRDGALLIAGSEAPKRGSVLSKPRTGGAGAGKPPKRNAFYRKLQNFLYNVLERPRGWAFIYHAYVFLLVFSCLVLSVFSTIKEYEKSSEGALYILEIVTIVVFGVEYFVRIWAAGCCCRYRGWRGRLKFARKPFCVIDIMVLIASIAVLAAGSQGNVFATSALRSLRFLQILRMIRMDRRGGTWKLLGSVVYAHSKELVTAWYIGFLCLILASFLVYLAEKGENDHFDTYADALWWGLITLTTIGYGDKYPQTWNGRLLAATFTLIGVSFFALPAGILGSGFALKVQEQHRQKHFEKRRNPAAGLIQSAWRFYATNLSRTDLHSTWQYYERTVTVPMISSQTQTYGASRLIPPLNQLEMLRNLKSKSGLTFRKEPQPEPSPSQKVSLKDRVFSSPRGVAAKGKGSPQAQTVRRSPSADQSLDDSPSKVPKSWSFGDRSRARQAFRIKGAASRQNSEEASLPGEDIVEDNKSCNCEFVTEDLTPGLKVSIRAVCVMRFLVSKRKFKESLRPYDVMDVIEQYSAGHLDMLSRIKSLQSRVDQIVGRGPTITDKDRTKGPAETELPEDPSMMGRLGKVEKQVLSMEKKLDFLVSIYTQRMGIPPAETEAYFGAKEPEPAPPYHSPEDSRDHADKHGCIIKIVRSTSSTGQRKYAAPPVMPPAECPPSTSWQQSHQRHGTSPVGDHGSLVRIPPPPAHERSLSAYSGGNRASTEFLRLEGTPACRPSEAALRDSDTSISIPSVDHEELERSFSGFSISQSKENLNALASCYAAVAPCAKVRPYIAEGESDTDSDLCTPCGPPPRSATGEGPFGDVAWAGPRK
KCNQ2 enhance baseline = also measured in KCNQ2 enhance; calls as there; B-score; compound at 10 µM; measured here: initial fluorescence intensity artifact check;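 brightness before thallium and not channel activity; 0 = typical well and far values either way flag optical interference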
An asterisk follows results filed as active. These rows are one share of the data, so the mix of outcomes need not match the whole.

A first look (three entries):
SMILES | KCNQ2 enhance | KCNQ2 enhance baseline
Cc1cnc([N+](=O)[O-])n1CCOC(=O)NC(=O)c1cccc(F)c1 | 1.1 | -0.35
COc1ccc(S(=O)(=O)NN=C2CCCCC2)cc1 | 0.72 | 2.1
COc1ccc(OC)c(Nc2nc3ccccc3n3cnnc23)c1 | 0.6 | 0.81

Results, from the first entry:
SMILES | KCNQ2 enhance | KCNQ2 enhance baseline
Cc1cnc([N+](=O)[O-])n1CCOC(=O)NC(=O)c1cccc(F)c1 | 1.1 | -0.35
COc1ccc(S(=O)(=O)NN=C2CCCCC2)cc1 | 0.72 | 2.1
COc1ccc(OC)c(Nc2nc3ccccc3n3cnnc23)c1 | 0.6 | 0.81
COc1ccc(C)cc1Nc1nc(C)nc2sc(C)cc12 | 0.86 | 0.03
COC(=O)c1ccc(NCC(=O)N2CCCCCC2)cc1 | 0.11 | 0.85
CCCCn1c(N)c(N(CCOC)C(=O)CCCc2nc3ccccc3s2)c(=O)[nH]c1=O | 1.1 | -1.6
CCc1cccc(CC)c1NC(=S)NCC(c1cccnc1)N(C)C (configuration not stated) | 0.54 | 2.2
CCCCC(=O)Nc1cccc(-c2csc(-c3ccccc3)n2)c1 | 5 | 1.3
CN(C)CCCC(C)(O)C(C)(C)c1ccccc1 (configuration not stated) | 0.66 | 0
Cc1ccc(-n2c(SCC(=O)OC(C)C)nnc2-c2cnccn2)cc1 | 2.8 | -0.19
CCOc1ccc2oc(C(=O)NCC(C)(C)CN(C)C)c(C)c2c1 | 1.1 | 1.2
O=C(CN1C(=O)c2ccccc2S1(=O)=O)NCc1ccco1 | 1.4 | -0.83
O=C(c1cc(Cl)ccc1O)N1CCN(S(=O)(=O)c2cccs2)CC1 | 0.87 | -1
Cc1ccc(NC(=O)CCn2nnc3ccccc32)cc1 | 0.79 | -0.93
O=C(CSc1nnc2ccc3ccccc3n12)N1CCOCC1 | 0.27 | -1.6
COC(=O)c1cccc(CSc2nc3ccccc3[nH]2)c1 | 1.6 | -0.4
O=S1(=O)CC2SC(=S)N(c3ccccc3)C2C1 (configuration not stated) | 2.1 | 0.04
O=C(O)Cc1sc(-c2cccnc2)nc1-c1ccc(Br)cc1 | 1.3 | -1.3
O=C(NCC1CC1)Nc1cccc(C(F)(F)F)c1 | 0.9 | -0.42
CC(C)(C)S(=O)(=O)c1cnc(N2CCCC2)nc1N | 1.2 | 4
COC(=O)c1cc(S(=O)(=O)NCc2ccc(F)cc2)cn1C | 1.5 | -0.51
COc1ccccc1N1CCN(c2nc3ccccn3c(=O)c2C=O)CC1 | 0.59 | -0.29
Cn1c(CC(=O)Nc2ccc(Cl)c(Cl)c2)n[nH]c1=S | 2.3 | -1.8
CCc1cc2c(-c3ccccc3)cc(=O)oc2cc1OCC(=O)NCC1CCC(C(=O)O)CC1 (configuration not stated) | 1.4 | -0.03
CN(C)CCCNC(=O)C(=O)NCC1OCCN1S(=O)(=O)c1cc(F)ccc1F (configuration not stated) | 0.48 | 2.1

In the list so far, 7 have a halogen.
SMILES | KCNQ2 enhance | KCNQ2 enhance baseline
Cc1cnc([N+](=O)[O-])n1CCOC(=O)NC(=O)c1cccc(F)c1 | 1.1 | -0.35
O=C(c1cc(Cl)ccc1O)N1CCN(S(=O)(=O)c2cccs2)CC1 | 0.87 | -1
O=C(O)Cc1sc(-c2cccnc2)nc1-c1ccc(Br)cc1 | 1.3 | -1.3
O=C(NCC1CC1)Nc1cccc(C(F)(F)F)c1 | 0.9 | -0.42
COC(=O)c1cc(S(=O)(=O)NCc2ccc(F)cc2)cn1C | 1.5 | -0.51
Cn1c(CC(=O)Nc2ccc(Cl)c(Cl)c2)n[nH]c1=S | 2.3 | -1.8
CN(C)CCCNC(=O)C(=O)NCC1OCCN1S(=O)(=O)c1cc(F)ccc1F (configuration not stated) | 0.48 | 2.1

(continued)
SMILES | KCNQ2 enhance | KCNQ2 enhance baseline
O=C(CC1(O)C(=O)Nc2cc(Cl)cc(Cl)c21)c1ccccc1O (configuration not stated) | 0.58 | -1.4
CCOCCn1c(N2CCN(c3ccc(OC)cc3)CC2)nc2c1c(=O)n(C)c(=O)n2C | 0.78 | 0.13
CN(C(=O)c1ccc(NC(=O)C2CC=CCC2C(=O)O)cc1)c1ccccc1 (configuration not stated) | 0.05 | -0.88
O=C(COC(=O)c1nc(Cl)ccc1Cl)NNC(=O)c1cccs1 | 1.3 | 0.64
CCn1nnnc1-c1ccc(OC)c(S(=O)(=O)Nc2ccc(C)c(C)c2)c1 | 1.6 | -2.3
COc1cccc(C2=NN(C(=O)c3ccc(C)o3)C(O)(C(F)(F)F)C2)c1 (configuration not stated) | 1.7 | 1.4
O=C(Cc1ccccc1)Nc1cc([N+](=O)[O-])ccc1N1CCOCC1 | 0.97 | 0.32
Cn1cccc1C(=O)NC(=O)COC(=O)c1ccc(O)cc1 | 0.7 | -0.49
COc1nccnc1NS(=O)(=O)c1ccc(NC(=O)c2ccc(F)cc2)cc1 | 0.01 | -1.4
COC(=O)c1ccc(-c2ccc(CNCC(O)c3ccccc3)o2)cc1 (configuration not stated) | 0.59 | -0.31
CCN(C(=O)CSc1nnc(-c2ccncc2)o1)c1ccccc1 | 2.3 | -0.27
CN(C)S(=O)(=O)c1ccc(NS(=O)(=O)/C=C/c2ccccc2)cc1 | 0.17 | -0.1
Cc1ccc(-n2nc(C(=O)O)cc2-c2ccc(Cl)cc2)cc1 | 0.19 | 0.91
O=C(NCc1ccco1)Nc1cccc([N+](=O)[O-])c1 | 0.09 | 1.6
N#Cc1c(NC(=O)c2ccc(N3CCOCC3)c([N+](=O)[O-])c2)sc2c1CCCC2 | 0.01 | -0.8
COc1cccc2cc(-c3n[nH]c(=S)n3C)oc12 | 1.2 | 0.09
Cc1c(NC(=O)CSc2nncc3ccccc23)c(=O)n(-c2ccccc2)n1C | 0.03 | 0.14
O=C(O)CSc1nc(-c2ccccc2)cc(=O)[nH]1 | 1.4 | 2.7
COCCn1c(=O)c2c(nc3n2CC(C)CN3CCc2ccccc2)n(C)c1=O (configuration not stated) | 0.13 | 0.75
O=C(CCC(=O)NCc1ccccc1)NCc1ccccc1 | 2 | 0.16
COc1ccc(CCNC(=O)CCNS(=O)(=O)c2cccc3nsnc23)cc1OC | 0.49 | 0.69
CCCCn1c(C(C)NC(=O)CCC)nc2ccccc21 (configuration not stated) | 0.28 | 0.95
O=C(CSc1nccn1-c1ccc(F)cc1)NCc1ccc(F)cc1 | 0.24 | -0.2
O=C(O)c1cccc(NC(=O)c2ccccc2NC(=O)c2cccc([N+](=O)[O-])c2)c1 | 0.16 | 0.21
COc1ccc(/C=C/C(=O)O)cc1S(=O)(=O)N1CCc2ccccc2C1 | 0.06 | -1.8

The closing four compounds of the part above are carried over, then new ones follow.
SMILES | KCNQ2 enhance | KCNQ2 enhance baseline
CCCCn1c(C(C)NC(=O)CCC)nc2ccccc21 (configuration not stated) | 0.28 | 0.95
O=C(CSc1nccn1-c1ccc(F)cc1)NCc1ccc(F)cc1 | 0.24 | -0.2
O=C(O)c1cccc(NC(=O)c2ccccc2NC(=O)c2cccc([N+](=O)[O-])c2)c1 | 0.16 | 0.21
COc1ccc(/C=C/C(=O)O)cc1S(=O)(=O)N1CCc2ccccc2C1 | 0.06 | -1.8
CCn1cc(S(=O)(=O)Nc2cccnc2)cn1 | 0.99 | -0.33
CCOC(=O)NN1C(=O)c2ccccc2NC1c1cccnc1 (configuration not stated) | 0.8 | 1.3
Cc1c(Br)cc(C(=O)NCCCN2CCOCC2)c(C)c1C | 0.01 | 0.69
Cc1ccccc1NC1=C(Cl)C(=O)OC1NC(=O)c1ccccc1 (configuration not stated) | 0.54 | -0.06
Cc1cccc(N(CC(=O)N2CCN(C)CC2)S(=O)(=O)c2ccccc2)c1 | 1.2 | 0.5
Cc1[nH]c(=O)c(C#N)c(C)c1CSc1ncccn1 | 0.65 | -1.9
CCC(C)NC(=S)N1CCN(C)CC1 (configuration not stated) | 0.11 | 0.69
CC(C)CN1CCC(=O)N(CCN=[N+]=[N-])CC1 | 1.1 | -0.91
O=C(CN1C(=O)CSC1=O)c1ccccc1 | 0.24 | 0.39
CCN1CCN(c2ccc(S(=O)(=O)N3CCOCC3)cc2NC(=O)/C=C/c2ccc(OC)c(OC)c2)CC1 | 1.2 | 0.54
Cc1ccc(NC(=O)c2cnn(-c3ccccc3)c2C)cc1 | 0.65 | 0.67
COc1ccccc1CNC(=O)c1cnc2ccccn2c1=O | 1.3 | 2.5
CC1CCCN(C(=O)CCCC(=O)N2CCCC(C)C2)C1 (configuration not stated) | 1.1 | 0
O=C(O)C1C2CCC(O2)C1C(=O)NCc1ccc(Cl)cc1 (configuration not stated) | 1.2 | 1
Cc1cccc(NC(=O)CCNC(=O)c2ccc(Br)cc2)c1 | 0.56 | 0.12
CN1C(=O)/C(=C2\SC(=S)N(CCCCCC(=O)O)C2=O)c2ccccc21 | 0.34 | -2.1
COC(=O)c1ccc(NC(=O)CCS(=O)(=O)c2ccc3c(c2)NC(=O)C(C)S3)cc1 (configuration not stated) | 1 | -0.36
OCCCNc1ncnc2sc(-c3ccccc3)cc12 | 1.2 | -1.4
